NPYLR7 agonist – activates Aedes aegypti NPYLR7 receptor | HEK293T NPYLR7/Galpha15, GCaMP6s calcium fluorescence | activation, % at 10 µM | 270,000 compounds, 0.15% hits | AID 1259423; in the data active means activation above about 40%;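 further: 0% = vehicle and 100% = reference agonist at the receptor; some compounds past the cut are filed as inactive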
NPYLR7 agonist max-min – also measured in NPYLR7 agonist; calls as there; activation, %; measured here: Max-Min RFU normalised activation; some inactives read as strong as hits;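 span of the calcium signal over five minutes; 0% = vehicle and 100% = native peptide agonist; compound fluorescence can raise it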
Numbers without * were called inactive.

compound	NPYLR7 agonist	NPYLR7 agonist max-min
CC1CN(C(=O)CNc2cccc(F)c2)CC(c2ccccc2)O1 (centres undefined)	-5	-5
COc1cc(NC(=O)NCCS(=O)(=O)c2c(C)n(C)c3ccccc23)cc(OC)c1OC	-4	7
Cc1c(C(=O)NC(C#N)CC(C)C)cnn1-c1ccc(F)cc1 (centres undefined)	9	6
CCC(C)c1ccccc1N1CC(C(=O)NNC(=O)c2ccco2)CC1=O (centres undefined)	7	6
COc1cc(S(=O)(=O)N2CCN(c3ccc(C)c(Cl)c3)CC2)c(OC)cc1Br	-4	-5
COCCCN(Cc1c(-c2ccccc2)noc1N(C)C(C)C)C(=O)C1CCCC1	11	16
COCCn1c(C)cc(C(=O)CSc2ccc3ccccc3n2)c1C	-3	-8
CC(C)CCNC(=O)C(C)S(=O)Cc1csc(C(C)C)n1 (centres undefined)	0	1
C=CCN1C(=O)NC(c2cccc(Oc3ccccc3)c2)C2=C1CN(CCc1ccccn1)C2=O (centres undefined)	-4	5
Cc1ccc(NC(=O)Cc2csc(NC(=O)CN(CC(C)C)C(=O)c3ccc(Cl)cc3)n2)cc1C	20	22

Pulled one by one from the entries so far (five):
compound	NPYLR7 agonist	NPYLR7 agonist max-min
Cc1ccc(NC(=O)Cc2csc(NC(=O)CN(CC(C)C)C(=O)c3ccc(Cl)cc3)n2)cc1C	20	22
C=CCN1C(=O)NC(c2cccc(Oc3ccccc3)c2)C2=C1CN(CCc1ccccn1)C2=O (centres undefined)	-4	5
COc1cc(S(=O)(=O)N2CCN(c3ccc(C)c(Cl)c3)CC2)c(OC)cc1Br	-4	-5
COc1cc(NC(=O)NCCS(=O)(=O)c2c(C)n(C)c3ccccc23)cc(OC)c1OC	-4	7
CC(C)CCNC(=O)C(C)S(=O)Cc1csc(C(C)C)n1 (centres undefined)	0	1

Further results follow:
compound	NPYLR7 agonist	NPYLR7 agonist max-min
CC1CCc2c(sc(NC(=O)c3c(F)cccc3F)c2C#N)C1 (centres undefined)	-5	-5
COC(=O)c1ccc(S(=O)(=O)NCC(=O)OC(C)C)c(Cl)c1	1	3
CC(=O)c1cc2c(cc1NC(=O)COc1cccc3c1CCCC3O)OCO2 (centres undefined)	0	-1
Fc1ccc(-c2n[nH]c(=S)n2-c2ccc(F)cc2)cc1	3	10
CN(C)S(=O)(=O)c1cccc2nsnc12	17	11
Cc1c(C(=O)NCCC#N)sc(=O)n1Cc1ccc(S(=O)(=O)N(C)C)cc1	13	7
CCCONc1nc(N)nc(N(CC)CC)n1	0	-2
CCCCCN(CC(=O)Nc1cc(C(C)(C)C)nn1-c1ccccc1Cl)C(=O)C(CC)c1ccccc1 (centres undefined)	19	12
CC1=CC(=C(C#N)C#N)C=C(C)N1c1cccc(F)c1	4	3
Cc1nc(C)n(CC(C)C(=O)Nc2ccc(Br)cc2)n1 (centres undefined)	-2	9
Cc1cccc2nc(CNC(=O)c3cccc(C4CCNC4)c3)cn12 (centres undefined)	4	1
CCCn1cc(C(=O)NC(C)c2nnc3n2CCNCC3)c(C)n1 (centres undefined)	3	0
O=C(c1c(Cl)cc(Cl)cc1Cl)N1CCC(c2cn(Cc3cccc(F)c3)c3ccccc23)CC1	12	-4
OC(Cc1ccccc1)CN(Cc1cccn1Cc1cccc(F)c1)C1CCCCC1 (centres undefined)	13	9
O=c1oc2c(CN3CC4CC(C3)c3cccc(=O)n3C4)c(O)ccc2cc1-c1ccccc1 (centres undefined)	8	10
N#Cc1ccc(NCCC(=O)N2CCc3sccc3C2)c(F)c1	1	2
COc1cc(/C=N\n2nnnc2N)ccc1OCC(N)=O	1	-1
CCC(C)n1c(C)c(C)n2c3c(=O)n(Cc4ccc(F)cc4)c(=O)n(C)c3nc12 (centres undefined)	1	-3
COc1ccc(S(=O)(=O)NCCCN2CCOCC2)cc1N1CCN(C(=O)c2ccccc2OC(F)(F)F)CC1	16	14
CCOc1ccc(/C=N\Nc2nc(Nc3ccc(F)cc3)nc(N3CCOCC3)n2)cc1OC	-3	-9
O=C(Cc1ccc2c(c1)CCC2)Nc1nn2cnnc2s1	-3	-6
COc1cccc(C(CN2CCN(C(=O)c3ccccc3OC)CC2)OCc2ccc(C#N)cc2)c1 (centres undefined)	3	1
COc1ccccc1-c1cc(C(=O)N2CCN(C(C)=O)CC2)nc2c(-c3ccccc3)c(C)nn12	1	12
COc1ccc(NC(=O)Cn2cc(OC)c(=O)cc2CSc2nccc(C)n2)cc1OC	-2	-10
COCC(C)NCc1ccc2[nH]c(C)c(C)c2c1 (centres undefined)	3	0
O=C(c1ccc(=O)[nH]n1)N1CCN(c2cccc(C(F)(F)F)c2)CC1	2	2
CC1(C(=O)NC2CCCC2)CCN1C(=O)C1(c2ccccc2)CCCC1 (centres undefined)	2	25
CC1CC(C)CN(S(=O)(=O)NCc2cc3ccccc3[nH]2)C1 (centres undefined)	6	5
Cc1cc(N2CCOCC2)n2nc(C(F)(F)F)c(-c3ccccc3Cl)c2n1	3	-5
Cc1ccc(C)c(CN(Cc2ccccc2)Cc2nc(C(=O)O)co2)c1	10	5
Nc1nc(SCCO)[nH]c(=O)c1NC(=O)c1ccccc1	-3	-9
O=C1NC2(CCN(C(=O)COCc3ccccc3)CC2)Nc2cc(Cl)ccc21	3	17
Cc1ccc(-c2noc(C(C)N3CCN(CCO)CC3)n2)cc1F (centres undefined)	5	2
Cn1cc(C(=O)NCc2cccs2)c2n[nH]c(=O)c-2c1	0	-2
Cc1c(C(=O)NC2CCCC2)sc(=O)n1Cc1ccc(C(F)(F)F)o1	13	3
Cc1ccc(-n2nnc3c(SCC(=O)NCc4ccccc4)ncnc32)cc1	2	31
Nc1cc(-c2cc(C(=O)O)ccc2Cl)c2cc[nH]c2n1	1	-1
O=C(Cn1ccn2nc(-c3ccc(Cl)cc3)cc2c1=O)Nc1ccc(F)cc1	4	3
O=S(=O)(c1ccccc1Cl)N1CCC(Cc2ccc(C(F)(F)F)cc2)CC1	-4	-15
CO[C@@H]1CN[C@H]2Cc3c(n(CC(N)=O)c4ccccc34)[C@@H]1C2	-1	8
CC1=C(C(=O)NCCN(CC(C)C)CC(C)C)C2(CCCCC2)OC1=O	6	4
N#CCCN(CCC(F)(F)F)C(=O)C1CC2CCC1C2 (centres undefined)	5	5
CN1CCN(C(CNC(=O)c2cccs2)c2ccc3c(c2)CCN3C)CC1 (centres undefined)	6	1
COCC(O)CNC(c1nc(-c2cc(OC)c(OC)c(OC)c2)no1)C(C)C (centres undefined)	-9	-2
CN(Cc1ncc[nH]1)C(=O)COc1ccc(F)cc1	10	1
Cc1ccc(S(=O)(=O)NC(=O)C2(C)CCN2C(=O)Cc2ccc(-c3ccccc3)cc2)nc1 (centres undefined)	1	1
CC(C)(CNC(=O)C1CCN(S(=O)(=O)c2ccc(F)cc2)CC1)N1CCCCC1	0	5
CCn1nc(C)cc1C(=O)Nc1sccc1C(N)=O	7	15
CN(C(=O)CN1CCOC(Cc2ccc(F)cc2)C1)c1ccccc1 (centres undefined)	-3	-4
Cc1cc(N(C)CCn2cnnc2)nc2ccccc12	2	-1

The list goes on:
compound	NPYLR7 agonist	NPYLR7 agonist max-min
COc1ccccc1N(CC(O)CN(c1ccccc1)S(C)(=O)=O)S(=O)(=O)c1ccccc1 (centres undefined)	-5	0
N#Cc1cnn(C(=O)Cc2ccccc2Br)c1N	5	0
O=C(NC1=NCCS1)c1ccc2snnc2c1	6	4
O=C(Cc1ccccc1)N1CCCC(OCc2ccc(F)cc2F)C1 (centres undefined)	-3	-1
CC(C)Oc1ccc(CCNC(=O)c2cn(CC3CCCCC3)nn2)cc1	0	-8
CC(=O)NC1C(=O)N(CCOc2ccccc2)c2c(C)cc(C)cc21 (centres undefined)	0	2
N#Cc1ccccc1Oc1ccc(NC(=O)C2CC=CCC2)cn1 (centres undefined)	6	5
O=C(Nc1ccc(Cc2ccncc2)cc1)N1CCCC(N2CCCC2)C1 (centres undefined)	-4	-5
CC(=O)c1cc(C(=O)NC2CCCN(Cc3ccc(Cl)cc3)C2)cs1 (centres undefined)	12	1
CCOC(=O)CCNC(=O)N1CCn2cccc2C1c1ccc(Br)cc1 (centres undefined)	11	9
COc1cccc(-c2cc(C(=O)NCc3cccnc3)c3ccccc3n2)c1	6	6
CCOc1ccc(C(C2Sc3nc(C)nn3C2=O)N2CCN(C(C)=O)CC2)cc1 (centres undefined)	-2	-7
CCOc1ccc(NC(=O)c2cc(=O)c(OC)c[nH]2)cc1	-6	-8
COC(=O)CN(C)Cc1nc(-c2cccc(Cl)c2)oc1C	5	3
Cc1cccc(COCC2CN(C(=O)c3ccccc3)CCO2)c1 (centres undefined)	24	18
COc1ccc(-c2nc(CN3CCN(c4cnccn4)CC3)c(C)o2)cc1OC	-12	-17
CC1CCCCN1C1CN(C(=O)CCC(=O)Nc2cccc(O)c2)C1 (centres undefined)	10	-1
CCOC(=O)c1sc(NC(=O)Cn2nc(C(F)(F)F)c(Br)c2C)c(C(=O)OCC)c1C	-2	-3
CN(C)c1ccc(CCCNC(=O)c2cn[nH]c2C(F)(F)F)cc1	9	7
O=C(CN(c1ccccc1)S(=O)(=O)c1ccccc1)NC1CCCC1	9	3
COc1ccc(-c2noc(-c3ccc(N(C)Cc4cc(C)no4)nc3)n2)cc1	11	-1
O=C(Nc1nnc(Cc2cccc(F)c2)s1)C1(Cc2ccccc2)CC1	4	0
CC(C)(C)c1ccc(COc2coc(CN3CCCN(S(=O)(=O)c4cccc(OC(F)(F)F)c4)CC3)cc2=O)cc1	8	4
CCCc1c(O)nc(SCCC(=O)O)[nH]c1=O	-1	-5
O=C(Cc1coc2cc3c(cc12)CCC3)Nc1cc(F)ccc1F	1	2
O=C(NNC(C(=O)NC1CC1)c1ccccc1)c1ccc(F)cc1 (centres undefined)	6	7
COc1ccc(C(C)=O)cc1CN1C(=O)C(C)ON=C1c1cccc(C(F)(F)F)c1 (centres undefined)	-1	-2
CCC(=O)N(c1nc(-c2ccc(C)cc2)c(C)s1)c1ccccc1OC	-7	-13
C=Cc1ccc(CC2(C)C(=O)Nc3ccc(OC(F)(F)F)cc32)cc1 (centres undefined)	3	2
CN(CC(=O)N1CC(=O)Nc2ccccc21)Cc1cccc(F)c1	-21	-22
CCSc1nc2c(c(C3CC=CCC3)c1C#N)CCC2 (centres undefined)	6	6
C=CCc1cccc2cc(C(=O)NNC(=O)c3ccc(OC)cc3)c(=O)oc12	-7	-9
CC1CN(S(=O)(=O)C2CCCC2)CC(C)(C)O1 (centres undefined)	5	3
COCCN(CC(=O)N(CCc1c[nH]c2ccccc12)Cc1ccc(F)cc1)C(=O)Nc1cccc(C#N)c1	26	21
CN(C)c1ccc(CNC(=O)C2(C)Cc3c(-c4cccc(C(N)=O)c4)ccnc3O2)cc1 (centres undefined)	-16	-15
CCCN(CC(=O)N(Cc1ccc(F)cc1)Cc1ccco1)C(=O)Nc1ccc(OC)cc1	-4	2
CC(C)c1cccc(N2CCN(Cc3cnc(-c4ccco4)nc3)CC2)n1	12	12
CCCc1ccc(CN2CCC3(CCC(=O)N(C)CC3)CC2)o1	0	0
CCN(CC)c1onc(-c2ccc(F)cc2)c1CN(CCN(C)C)C(=O)c1cccc(OC)c1	15	16
CC(C)(C)NC(=O)N1CCn2cccc2C1c1cccnc1 (centres undefined)	13	5
c1ccc(Cc2nnc3sc(-c4ccncc4)nn23)cc1	13	10
COCCn1c(=NC(=O)c2nc3ccccc3s2)sc2cc(S(C)(=O)=O)ccc21	3	4
Cc1ccc(-n2ncc3c(C(C)C)nnc(SCC(=O)NCc4ccco4)c32)cc1C	-10	-14
O=C(CN(CC1CC1)S(=O)(=O)c1ccc(F)cc1)N1CCc2sccc2C1c1ccc(Cl)cc1Cl (centres undefined)	19	14
Cc1nc2ncc(-c3ccnc4[nH]ccc34)cc2[nH]1	-2	-7
Cc1cc(O)c(CN2CCN(CCO)CC2)c2c1C(=O)/C(=C/c1ccc(F)cc1)O2	15	14
Ic1cccc(-c2nc(-c3cccnc3)no2)c1	11	9
O=C(c1ccc(-c2ccn[nH]2)cc1)N1CCC2(CC1)C(=O)Nc1ccccc12	5	5
CC(C)c1ccc(S(=O)(=O)N2CCC3(CC2)NC(=O)C2(CCCCC2)N3)cc1	-4	-7
Cn1nc(C(=O)NCc2cccnc2)c2c1CCN(Cc1ccc3c(c1)Cc1ccccc1-3)C2	3	-3

Overlap with the part before: 2 compounds, followed by the next part.
compound	NPYLR7 agonist	NPYLR7 agonist max-min
CC(C)c1ccc(S(=O)(=O)N2CCC3(CC2)NC(=O)C2(CCCCC2)N3)cc1	-4	-7
Cn1nc(C(=O)NCc2cccnc2)c2c1CCN(Cc1ccc3c(c1)Cc1ccccc1-3)C2	3	-3
Cc1sc2nc3n(sc4nc5sc(C)c(C)c5c(=O)n43)c(=O)c2c1C	2	1
Cc1cc(N(C)C)nc(Nc2ccc(NC(=O)c3cccc4ccccc34)cc2)n1	6	0
Cc1ccsc1C(=O)N1CCC1(C)C(=O)NS(=O)(=O)c1ccccc1 (centres undefined)	2	1
CC(C)N(CCC(N)=O)CC1CC=CCC1 (centres undefined)	-4	-3
N#Cc1ccc(N2CCN(c3cnccn3)CC2)c(C(F)(F)F)c1	1	10

Among those listed so far, three contain a tert-butyl group:
compound	NPYLR7 agonist	NPYLR7 agonist max-min
CCCCCN(CC(=O)Nc1cc(C(C)(C)C)nn1-c1ccccc1Cl)C(=O)C(CC)c1ccccc1 (centres undefined)	19	12
CC(C)(C)c1ccc(COc2coc(CN3CCCN(S(=O)(=O)c4cccc(OC(F)(F)F)c4)CC3)cc2=O)cc1	8	4
CC(C)(C)NC(=O)N1CCn2cccc2C1c1cccnc1 (centres undefined)	13	5

From PubChem BioAssay

Not all compounds are listed (hit frequency here may not be typical).
